Ecoli growth – inhibitors of Escherichia coli growth | OD600, 23 h; hits give low values | OD600 absorbance (no concentration beside the values) | hit rate 0.21% among 330,000;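 active = OD600 absorbance below the run mean of sample wells minus 3.6 SD, in any replicate, cut at about 0.56 in these data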;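 also: stock transfer was 300 nL into about 60 µL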
* hit, by the source's call; & = joins results of further samples. Some of the compounds tested; rates above refer to the full screens.

The first 3 records (preview)
C#CCOCCOCCOCCNc1nc(N2CCN(C(=O)C(CCCCN)n3cc(CC(C)O)nn3)CC2)nc(N2CCN(C(=O)C(C(C)CC)n3cc(CCCN=C(N)N)nn3)CC2)n1 (centres undefined) was read as Ecoli growth 0.71.
CCCNC(=O)C=Cc1ccc(S(=O)(=O)Nc2ccccc2OC)cc1 was read as Ecoli growth 0.71.
For CCCCCCC=Cc1ccc(C2C3C=CCC(C)C3C(=O)N2Cc2ccccc2)c(F)c1 (centres undefined) the results were Ecoli growth 0.73.

All compounds of this part (from the top)
C#CCOCCOCCOCCNc1nc(N2CCN(C(=O)C(CCCCN)n3cc(CC(C)O)nn3)CC2)nc(N2CCN(C(=O)C(C(C)CC)n3cc(CCCN=C(N)N)nn3)CC2)n1 (centres undefined) was read as Ecoli growth 0.71.
CCCNC(=O)C=Cc1ccc(S(=O)(=O)Nc2ccccc2OC)cc1 was read as Ecoli growth 0.71.
For CCCCCCC=Cc1ccc(C2C3C=CCC(C)C3C(=O)N2Cc2ccccc2)c(F)c1 (centres undefined) the results were Ecoli growth 0.73.
Cc1ccc(-c2cc(C3C4C=CCC(C)C4C(=O)N3Cc3ccccc3)ccc2F)cc1 (centres undefined) was read as Ecoli growth 0.73.
COc1ccc(C2CC(=O)C=C(c3ccc(OC)c(F)c3)C2)cc1 (centres undefined) was read as Ecoli growth 0.69.
`COC(=O)CN=C1OC(=O)N2C(=O)C3=C4C(CC5C(=O)N(c6ccccc6)C(=O)C5C4[C@@]12Cc1ccccc1)C1C(=O)N(c2ccccc2)C(=O)C1C3C` (some centres undefined) gave Ecoli growth 0.72.
For O=C(NCc1nc2ccccc2[nH]1)C1=CC(c2ccccc2)CC(OCc2ccc(CO)cc2)O1 (centres undefined) the results were Ecoli growth 0.72&0.72.
`CC(C(=O)Nc1ccc2ccccc2c1)C1C[C@@]1(C)C(NC(=O)OCc1ccccc1)c1ccccc1` (some centres undefined) gave Ecoli growth 0.67.
`CCN1CC2C3C(=O)N(C)C(=O)C3[C@](Cc3ccccc3)(C1=O)N2C(=O)c1ccc(C(C)(C)C)cc1` (some centres undefined) gave Ecoli growth 0.71.
For CC(C)CC(CO)N1CCN(CCc2ccccc2)CCC1=O (centres undefined) the results were Ecoli growth 0.64.
COc1ccc(S(=O)(=O)Nc2ccc3c(c2)CC(=O)N(C(C)CO)CC(C)C(CN(C)C(=O)Nc2ccc4c(c2)OCO4)O3)cc1 (centres undefined) was read as Ecoli growth 0.62.
NCCCCCNC(=O)c1[nH]cnc1C(=O)NC(Cc1ccccc1)C(=O)OCc1ccccc1 (centres undefined) was read as Ecoli growth 0.7.
For COc1cccc(OC)c1C1=CC(=O)CC(c2ccc3c(c2)OCO3)C1 (centres undefined) the results were Ecoli growth 0.67.
Screening CCc1ccc(C=C2C(=O)N(C)C(=S)N2CC(=O)OC)s1 returned Ecoli growth 0.71.
Screening O=[N+]([O-])c1ccc2c(c1)C(N1CCOCC1)C(=CCOc1ccc(Cl)cc1Cl)O2 (centres undefined) returned Ecoli growth 0.76.
COC(=O)C1=C(C)N(CCc2cc(OC)c(OC)c(OC)c2)C(=O)NC1c1ccccc1 (centres undefined) was read as Ecoli growth 0.68.
For CC1CC2C3CC(F)C4=CC(=O)C=C[C@]4(C)[C@@]3(Cl)C(O)C[C@]2(C)C1C(=O)COC(=O)C(C)(C)C (some centres undefined) the results were Ecoli growth 0.72.
Screening C#CCNC(=O)C1=CC(c2ccc(C(F)(F)F)cc2)C(CCCO)C(OCC)O1 (centres undefined) returned Ecoli growth 0.66&0.69.
`CCN1C(=O)NC(=Cc2ccc(Sc3ccc(C)cc3)o2)C1=O` gave Ecoli growth 0.75.
COc1ccc(S(=O)(=O)Nc2cccc3c2OC(CN(C)Cc2ccccc2)C(C)CN(C(C)CO)C3=O)cc1 (centres undefined) was read as Ecoli growth 0.7.
`Cc1ccc(NC(=O)c2nc[nH]c2C(=O)NC(C)c2ccccc2)cc1` (centres undefined) gave Ecoli growth 0.67&0.7.
O=C(C1=CC(c2ccc(C(F)(F)F)cc2)CC(OCc2ccc(CO)cc2)O1)N1CCOCC1 (centres undefined) was read as Ecoli growth 0.69&0.68.
Screening C#CCOCCOCCOCCNc1nc(N2CCOCC2)nc(N2CCN(C(=O)C(C(C)CC)n3cc(C(N)CO)nn3)CC2)n1 (centres undefined) returned Ecoli growth 0.65.
O=C(Nc1ccc(C=Cc2nc3ccccc3o2)cc1)c1cccc(C(F)(F)F)c1 was read as Ecoli growth 0.72.
Screening CC(C(=O)O)C1C[C@]1(C)C(NC(=O)OCc1ccccc1)c1ccccc1 (some centres undefined) returned Ecoli growth 0.7.
Screening CCOC(=O)C1C2COc3ccc(Br)cc3C2N2C(=O)N(c3cccc(Cl)c3)C(=O)[C@@]12C (some centres undefined) returned Ecoli growth 0.76.
Screening COC(=O)[C@@]12CCCN1C(c1ccc(-c3cccc(Cl)c3)cc1)C1C(=O)N(C)C(=O)C12 (some centres undefined) returned Ecoli growth 0.7.
Screening Cc1ccc(S(=O)(=O)N2C(c3cccc(C)c3)CC=C(C(=O)O)C2c2ccc(F)cc2)cc1 (centres undefined) returned Ecoli growth 0.69.
COc1ccc(C2CC(=O)C=C(c3ccc(OC(F)(F)F)cc3)C2)cc1OC (centres undefined) was read as Ecoli growth 0.71.
For O=C1NC(=Nc2ccccc2)SC1=Cc1cccs1 the results were Ecoli growth 0.7.
For CCOC(=O)CC1=NN(c2ccccc2)C(=O)C1=Cc1ccc(OC)cc1OC the results were Ecoli growth 0.67.
`CCCCN1CC(=O)N2C3c4ccccc4OCC3C(C(=O)OCC)[C@]2(C)C1=O` (some centres undefined) gave Ecoli growth 0.67.
`CCN1C(=O)C2C(c3ccc(C)cc3)N3C(=O)N(c4ccc(C)cc4)C(=O)[C@@]3(Cc3ccccc3)C2C1=O` (some centres undefined) gave Ecoli growth 0.7.
For O=C(NCc1ccccc1)c1cccc2c1C(=O)c1ccc(C=Cc3ccccc3)cc1S2(=O)=O the results were Ecoli growth 0.73.
For CC(C)=CCC[C@](C)(OC1OC(COC2OCC(OC3OCC(O)C(O)C3O)C(O)C2O)C(O)C(O)C1O)C1CC[C@]2(C)C1C(O)CC1[C@@]3(C)CCC(O)C(C)(C)C3C(O)C[C@]12C (some centres undefined) the results were Ecoli growth 0.67.
For CCCN1CCC(=O)N(C(CSc2ccc(C)cc2)c2ccccc2)CC1 (centres undefined) the results were Ecoli growth 0.58.
Screening COc1ccc(C2CC(=O)C=C(C=Cc3ccc(Cl)cc3)C2)cc1 (centres undefined) returned Ecoli growth 0.68.
Screening COc1ccc(C2C3C(=O)N(C(C)(C)C)C(=O)C3[C@]3(Cc4ccc(Cl)cc4)C(=O)N(c4cccc(Br)c4)C(=O)N23)cc1 (some centres undefined) returned Ecoli growth 0.72.
`CCOC(=O)C(C#N)=CC(C(=O)OCC)=C(N)N1CCN(c2ccccc2)CC1` gave Ecoli growth 0.71.
`CN1C2CCCC1CC(NC(=O)c1nn(C)c3ccccc13)C2` (centres undefined) gave Ecoli growth 0.67.

By substructure: the entries above with a thiophene ring, fused or not.
Screening CCc1ccc(C=C2C(=O)N(C)C(=S)N2CC(=O)OC)s1 returned Ecoli growth 0.71.
For O=C1NC(=Nc2ccccc2)SC1=Cc1cccs1 the results were Ecoli growth 0.7.

Remaining list, next part.
`NC(=NOC(=O)CCCN1C(=O)c2ccccc2C1=O)c1ccc(Br)cc1` gave Ecoli growth 0.69.
CCN1CC2C3C(=O)N(Cc4ccccc4)C(=O)C3[C@](C)(C1=O)N2C(=O)c1ccc(C(F)(F)F)cc1 (some centres undefined) was read as Ecoli growth 0.71.
Screening O=C1NC(Cc2ccccc2)C(=O)N2C1C[C@]1([C@]34CC5C(=O)NC(Cc6ccccc6)C(=O)N5C3Nc3ccccc34)c3ccccc3NC21 (some centres undefined) returned Ecoli growth 0.69.
Screening CC(C)(C)OC(=O)C(Cc1ccccc1)NC(=O)c1nc[nH]c1C(=O)NCC(=O)OCc1ccccc1 (centres undefined) returned Ecoli growth 0.72.
C#CCOCCOCCOCCNc1nc(N2CCN(C(=O)C(CCCCN)n3cc(CCCC)nn3)CC2)nc(N2CCN(C(=O)C(CCCCN)n3cc(CCC(=O)O)nn3)CC2)n1 (centres undefined) was read as Ecoli growth 0.68.
`O=C(C1=CC(c2ccc(C(F)(F)F)cc2)CC(OCCCCO)O1)N1CCN(Cc2ccccc2)CC1` (centres undefined) gave Ecoli growth 0.7&0.69.
COc1ccc(C=Cc2onc(C)c2S(=O)(=O)N2CCC(C(=O)NCCC(C)C)CC2)cc1 was read as Ecoli growth 0.68.
Screening O=C(C=Cc1cccs1)N1CCC2(CC1)Oc1ccc(Cl)cc1C(=O)C21CC(c2ccc(Cl)cc2)=NO1 (centres undefined) returned Ecoli growth 0.69.
For CCN1CC2C3C(=O)N(Cc4ccccc4)C(=O)C3[C@](CC)(C1=O)N2C(=O)c1ccc(F)cc1 (some centres undefined) the results were Ecoli growth 0.67.
For CN(CC(Cc1cccc2ccccc12)N(CC(Cc1ccccc1)N(CCc1ccccc1)N=O)N=O)N=O (centres undefined) the results were Ecoli growth 0.71.
CC1CN(C(C)CO)C(=O)c2cccc(NC(=O)Nc3ccc4c(c3)OCO4)c2OC1CN(C)C(=O)Nc1ccc(C(F)(F)F)cc1 (centres undefined) was read as Ecoli growth 0.72.
Screening CCOC(=O)C1C2COc3cc(OC)ccc3C2N2C(=O)CN(CCc3c[nH]c4ccccc34)C(=O)[C@@]12C (some centres undefined) returned Ecoli growth 0.69.
Cc1ccc(F)c(C2C3C=CCC(c4ccccc4)C3C(=O)N2Cc2ccccc2)c1 (centres undefined) was read as Ecoli growth 0.68.
For CC(C)CC(NC(=O)c1[nH]cnc1C(=O)NC(Cc1ccccc1)C(=O)OCc1ccccc1)C(=O)OCc1ccccc1 (centres undefined) the results were Ecoli growth 0.69.
CC1(c2ccccc2)CC(C)(C)N2C(=O)C(=C3SC(=S)NC3=O)c3cccc1c32 (centres undefined) was read as Ecoli growth 0.69.
For Cc1cc(C)n(C(=O)C(C#N)=CN(C)C)n1 the results were Ecoli growth 0.7.
`O=C1C2C(c3ccc(F)cc3)N3C(=O)N(c4cccc(Br)c4)C(=O)[C@@]3(Cc3ccccc3)C2C(=O)N1C1CCCCC1` (some centres undefined) gave Ecoli growth 0.73.
For C#CCOCCOCCOCCNc1nc(N2CCN(C(=O)C(CC(N)=O)n3cc(C(N)C(C)C)nn3)CC2)nc(N2CCN(C(=O)C(CC(N)=O)n3cc(C(N)C(C)C)nn3)CC2)n1 (centres undefined) the results were Ecoli growth 0.69.
For COC(=O)C1=C(C)N(Cc2ccccc2)C(=NCc2ccco2)NC1c1cccc(F)c1 (centres undefined) the results were Ecoli growth 0.7.
`CC1CC=CC2C1C(=O)N(Cc1ccccc1)C2c1ccc2ccccc2c1Br` (centres undefined) gave Ecoli growth 0.63.

Fetched one by one from the list above, 2 records:
Screening CC(C)(C)OC(=O)C(Cc1ccccc1)NC(=O)c1nc[nH]c1C(=O)NCC(=O)OCc1ccccc1 (centres undefined) returned Ecoli growth 0.72.
Screening O=C(C=Cc1cccs1)N1CCC2(CC1)Oc1ccc(Cl)cc1C(=O)C21CC(c2ccc(Cl)cc2)=NO1 (centres undefined) returned Ecoli growth 0.69.

Next records follow.
For CC(C)(C)C1COC(=O)CCCCC=CCC(CC(=O)NCCO)C(=O)N1 (centres undefined) the results were Ecoli growth 0.71.
`CCOC(=O)C1=CCC2c3c(c4ccc(OC)cc4n3C)C(=O)C1N2S(=O)(=O)c1ccc(C)cc1` (centres undefined) gave Ecoli growth 0.66.
Screening C#CCOCCOCCOCCNc1nc(N2CCOCC2)nc(N2CCN(C(=O)C(Cc3cc4ccccc4[nH]3)n3cc(C(N)C(C)CC)nn3)CC2)n1 (centres undefined) returned Ecoli growth 0.71.
Screening CCC(C)Sc1ccc(C2N[C@@](CC(C)C)(C(=O)OC)C3C(=O)N(CC)C(=O)C23)cc1 (some centres undefined) returned Ecoli growth 0.7.
For Clc1ccc(C2C3CN(Cc4ccc(-c5ccccc5)cc4)C(c4ccccc4)C34CC2(c2ccccc2)C4)cn1 (centres undefined) the results were Ecoli growth 0.73.
`Cc1cc(O)cc(OC2OC(CO)C(O)C(O)C2O)c1` (centres undefined) gave Ecoli growth 0.69.
CCC(C)C(C(=O)N1CCNCC1)n1cc(CCCCN)nn1 (centres undefined) was read as Ecoli growth 0.66.
Screening S=C1NCC(CC2CCCCC2)N1CC1CCCCC1 (centres undefined) returned Ecoli growth 0.66.
Screening COC(=O)c1cccc(C23CC4(C2)C(CN(C)C4c2ccccc2)C3c2ccccc2)c1 (centres undefined) returned Ecoli growth 0.69.
CCN1C(=O)C2C(c3ccc(SC4CCCCC4)cc3)N3CCCC[C@@]3(C(=O)OC)C2C1=O (some centres undefined) was read as Ecoli growth 0.66.
Screening CCC(C)C(N)c1cn(C(CC(N)=O)C(=O)N2CCNCC2)nn1 (centres undefined) returned Ecoli growth 0.69.
Cn1c(=O)n(C)c2cc(C=C3SC(=O)N(CC(=O)N4CCOCC4)C3=O)ccc21 was read as Ecoli growth 0.64.
For COc1cccc(CN2C[C@]34C=CC(CC3S2(=O)=O)O4)c1 (some centres undefined) the results were Ecoli growth 0.7.
CC(C)CC(NC(=O)c1[nH]cnc1C(=O)Nc1ccc(Cl)cc1)C(=O)OC(C)(C)C (centres undefined) was read as Ecoli growth 0.68.
Screening CN(CC(Cc1ccccc1)N(CC(Cc1cccc2ccccc12)N(CCc1ccccc1)N=O)N=O)N=O (centres undefined) returned Ecoli growth 0.74&0.72.
Screening CC(=O)[C@@]1(O)CCC2C3CCC4=CC(=O)CC[C@]4(C)C3CC[C@@]21C (some centres undefined) returned Ecoli growth 0.67.
O=C(C1=CC(C2CCCCC2)CC(OCCCCO)O1)N1CCN(Cc2ccccc2)CC1 (centres undefined) was read as Ecoli growth 0.65&0.68.
`CCN1C(=CC(=O)c2ccco2)Sc2ccccc21` gave Ecoli growth 0.67.
